High-throughput results deposited in PubChem by Southern Research Institute.
Mtb H37Rv – Mycobacterium tuberculosis H37Rv growth inhibition, putative kinase inhibitor library, confirmatory dose response (AID 2842) | M. tuberculosis H37Rv growth inhibition; higher % means a stronger effect; some inactives read as strong as hits | 5.2% of 24,000 active | one-dose inhibition, % at 10 µg/mL; IC90 in µg/mL for titrated hits;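 active = confirmed in a dose series; about a fifth of its hits are not listed in these tables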;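 also: bacteria incubated one week before Alamar blue readout; 0% = bacteria only wells and 100% = bacteria with high antibiotic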
Starred values were filed as active, the others as inactive. This is a subset; rates above refer to the full screens.

The first two compounds (preview)
SMILES	Mtb H37Rv
COc1ccc(-n2c(SCC(=O)Nc3cccc(C)c3)nc3c(oc4ccccc43)c2=O)cc1	-1.5%
O=C(Nc1nnc(-c2ccc(Cl)s2)o1)c1c(F)cccc1F	3.8µg/mL*

This part in full (from the top)
SMILES	Mtb H37Rv
COc1ccc(-n2c(SCC(=O)Nc3cccc(C)c3)nc3c(oc4ccccc43)c2=O)cc1	-1.5%
O=C(Nc1nnc(-c2ccc(Cl)s2)o1)c1c(F)cccc1F	3.8µg/mL*
Cc1c(C(=O)O)sc2nc(SC3CCOC3=O)[nH]c(=O)c12 (stereo not drawn)	-10.4%
CC1Cc2nc(SCC(=O)Nc3cccc(F)c3)n(Cc3ccccc3)c(=O)c2S1 (stereo not drawn)	-7.7%
CC(C)NC(=O)C(=O)Nc1ccc2c(c1)N(S(=O)(=O)c1cccs1)CCC2	-14.0%
COc1ccccc1-c1nc(SCC(=O)N2CCc3ccccc32)c2c(=O)n(C)c(=O)n(C)c2n1	-8.2%
CCOc1cccc2c1Oc1nc(-c3ccccc3OC)[nH]c(=O)c1C2	8.3%
Nn1c(SCC(=O)Nc2ccccc2F)nnc(Cc2ccccc2)c1=O	13.6%
CCOC(=O)c1nn(-c2ccc(C(F)(F)F)cc2)c(=O)c2c(NC(=O)c3c(F)cccc3Cl)scc12	9.1%
Cc1ccc(N2C(=O)C3N=NN(CC(=O)NCc4ccc(F)cc4)C3C2=O)cc1Cl (stereo not drawn)	-10.3%

Quoted from the entries so far for reference:
SMILES	Mtb H37Rv
COc1ccc(-n2c(SCC(=O)Nc3cccc(C)c3)nc3c(oc4ccccc43)c2=O)cc1	-1.5%
O=C(Nc1nnc(-c2ccc(Cl)s2)o1)c1c(F)cccc1F	3.8µg/mL*
Cc1c(C(=O)O)sc2nc(SC3CCOC3=O)[nH]c(=O)c12 (stereo not drawn)	-10.4%
CC1Cc2nc(SCC(=O)Nc3cccc(F)c3)n(Cc3ccccc3)c(=O)c2S1 (stereo not drawn)	-7.7%
CC(C)NC(=O)C(=O)Nc1ccc2c(c1)N(S(=O)(=O)c1cccs1)CCC2	-14.0%

The listing picks up, repeating the 2 entries before the break.
SMILES	Mtb H37Rv
CCOC(=O)c1nn(-c2ccc(C(F)(F)F)cc2)c(=O)c2c(NC(=O)c3c(F)cccc3Cl)scc12	9.1%
Cc1ccc(N2C(=O)C3N=NN(CC(=O)NCc4ccc(F)cc4)C3C2=O)cc1Cl (stereo not drawn)	-10.3%
CCOC(=O)C1CCCN(c2ncnc3nc[nH]c23)C1 (stereo not drawn)	4.2%
Cc1ccc(C(C)C)c(OCCCN2C(=O)C(=O)c3cccc(C)c32)c1	4.7%
Cc1cc(C)cc(-n2ccnc(NCC(C)c3ccccc3)c2=O)c1 (stereo not drawn)	81.5%
O=C(O)C(Cc1cnc[nH]1)N1C(=O)c2cccc([N+](=O)[O-])c2C1=O (stereo not drawn)	-1.6%
COc1ccc(Cl)cc1C(=O)Nc1nnc(-c2ccc(C)cc2)s1	0.5%
CC(=O)Nc1nc(SCC(=O)NC2CCCC2)[nH]c(=O)c1NC(=O)c1cccs1	-15.6%
Cc1cn2c3c(=O)n(C/C=C/c4ccccc4)c(=O)n(C)c3nc2n1-c1ccccc1F	8.4%
Cc1ccc(Nc2nc(NCCc3ccccc3)nc3nccnc23)cc1C	-3.3%
Nc1nc(SC/C=C/c2ccccc2)[nH]c(=O)c1NC(=O)c1ccc(F)c(F)c1	1.4%
COc1ccc(Cc2nnc(SCc3ccc([N+](=O)[O-])cc3)n(N)c2=O)cc1	10.4%
CCOC(=O)c1nn(-c2ccc(C(F)(F)F)cc2)c(=O)c2c(NC(=O)c3cccc(Cl)c3)scc12	2.9%
COc1ccccc1/C=N/Nc1ncnc2nc[nH]c12	1.9%
Cc1ccc2nc(NC(=O)c3ccc(-c4nc5ccccc5s4)s3)sc2c1	0.8%
COc1ccc2nc(-c3ccc(OC)c(NC(=O)c4ccccc4C(F)(F)F)c3)cn2n1	-7.4%
O=C(Nc1nc(-c2ccc(Cl)cc2Cl)cs1)c1ccc(N2C(=O)CCC2=O)cc1	-1.4%
Cc1cnc(=O)[nH]c1SCC(=O)NC1CCCCC1	-9.0%
Cc1nc2sc(C(c3ccccc3Cl)N3CCN(CCO)CC3)c(O)n2n1 (stereo not drawn)	1.5%
CCOC(=O)c1cnc2ccccc2c1Nc1cc(C(=O)O)ccc1C	2.9%
O=C(Nc1nc2c(s1)CCc1ccccc1-2)c1ccc(Cl)cc1	70.8%
Cc1cn2c3c(=O)n(CC(N)=O)c(=O)n(C)c3nc2n1-c1ccc(C(F)(F)F)cc1	-9.4%
COc1ccc(C(=O)COC(=O)c2sc(-c3ccccc3)nc2C)cc1	10.9%
COc1cccc(C(c2sc3nc(C)nn3c2O)N2CC(C)CC(C)C2)c1 (stereo not drawn)	4.1%
Cc1sc2nc(NCCO)[nH]c(=O)c2c1C	6.4%
Cc1ccc2nc(NC(=O)CSc3nc(N)c(NC(=O)c4ccccc4)c(=O)[nH]3)sc2c1	20.4%
CCOC(=O)c1sc(NC(=O)CSC2=NN3CCCC(=O)N=C3S2)c(C(=O)OCC)c1C	-17.2%
Cc1cc(Cl)ccc1OCC(=O)N=Nc1c(O)[nH]c2ccc(Br)cc12	0.6%
COc1ccc(CNc2nc3c(-c4cccc(Br)c4)nnn3c3ccccc23)cc1	-4.7%
Cc1ccc(-n2ncc3c(N4CCN(c5ccccc5F)CC4)ncnc32)c(C)c1	5.4%
COc1cccc(/C=C2/Oc3cc(O)ccc3C2=O)c1O	-4.8%
C#CCn1c(=NC(=O)c2cccc(Cl)c2)sc2cc(NC(C)=O)ccc21	5.7%
COc1ccc(NC(=O)c2sc3nc(-c4ccc(Cl)cc4)cc(-c4ccco4)c3c2N)cc1	2.2%
CCOC(=O)c1oc2ccccc2c1NC(=O)c1ccc(OC)cc1OC	9.1%
Cn1c(SCC(=O)N2CCCC2)ncc(C(=O)Nc2ccc(Cl)cc2)c1=O	-9.1%
O=C(O)c1ccc(CN=C2NS(=O)(=O)c3ccccc32)cc1	-8.6%
Cc1ccc(C2C3=C(CC(C)(C)CC3=O)Nc3nc(SC(C)C)[nH]c(=O)c32)s1 (stereo not drawn)	4.2%
Cc1[nH]c2ccc(N3CCOCC3)cc2c(=O)c1CN1CCCCC1	9.5%
COc1cccc(N2CC(NC(=O)Nc3ccc4c(c3)OCCO4)CC2=O)c1 (stereo not drawn)	6.2%
Cc1ccc(-c2nnc(NC(=O)c3ccccc3[N+](=O)[O-])o2)c(C)c1	15.7µg/mL*
Cc1nc(SCC(=O)NCc2ccco2)[nH]c(=O)c1C	-7.1%
Cc1c(NC(=O)/C=C/C(=O)O)c(=O)n(-c2ccccc2)n1C	-3.0%
O=C(Nc1nnc(-c2cccs2)o1)c1nc2ccccc2s1	2.98µg/mL*
COC(=O)c1c2c(n3ccc(C)cc13)C(=O)c1ccccc1C2=O	0.35µg/mL*
Cc1ccc(NC(=O)Cc2csc(NS(=O)(=O)c3ccccc3)n2)c(C)c1	-12.7%
COc1ccc(N2CCN(c3oc(COc4ccc(C)cc4)nc3C#N)CC2)cc1	28.2%
COc1ccc(F)cc1S(=O)(=O)Nc1cc2c3c(c1)CCC(=O)N3CCC2	0.2%
Cc1ccc(C)c(-n2c(CNC(=O)c3ccc([N+](=O)[O-])cc3)nnc2SCC(=O)Nc2nnc(C)s2)c1	1.1%
Cc1cc2cc(CCNC(=O)c3cccc(Cl)c3)c(=O)[nH]c2cc1C	1.7%
COc1ccc(C(=O)Nc2c(N)nc(SCC(=O)Nc3ccc(Br)cc3)[nH]c2=O)cc1OC	-12.5%
Cc1csc(NC(=O)CSc2nc(N)c(NC(=O)c3ccccc3)c(=O)[nH]2)n1	-0.9%
Cn1c(=O)[nH]c(=O)c2c1nc(N1CCN(c3cccc(Cl)c3)CC1)n2CCSc1nc2ccccc2s1	71.2%
Going on with the list.
SMILES	Mtb H37Rv
Clc1ccc(Cl)c2sc(N3CCc4ccccc4C3)nc12	68.0%
O=C(NCc1ccccc1Cl)NC1CC(=O)N(c2ccccc2)C1 (stereo not drawn)	2.9%
CCCCCNc1nc2c(c(=O)[nH]c(=O)n2C)n1CC(O)COc1ccccc1 (stereo not drawn)	-3.6%
Cc1ccc(Cl)cc1N1CCN(CC(O)COc2ccccc2[N+](=O)[O-])CC1 (stereo not drawn)	13µg/mL*
CC(C)CCn1c(N2CCN(Cc3ccccc3F)CC2)nc2c1c(=O)[nH]c(=O)n2C	21.4%
Brc1cccc2sc(N3CCN(c4nc5ccccc5s4)CC3)nc12	4.2%
CCc1ccc(NC(=O)COC(=O)c2ccc3c(c2)C(=O)N(c2ccccc2Cl)C3=O)cc1	17.4%
NC(=O)CSc1nc2c(c(=O)n1-c1ccccc1)SCC2	4.7%
O=C1Nc2ccccc2Oc2ccc(NS(=O)(=O)CCc3ccccc3)cc21	-3.1%
CC(=O)c1sc(NC(=O)c2ccno2)nc1-c1ccccc1	-4.0%
CCC1CCCCN1S(=O)(=O)c1ccc(C(=O)Nc2nc3c(s2)Cc2ccccc2-3)cc1 (stereo not drawn)	-3.3%
NC(=O)c1c(NC(=O)CN2C(=O)CCC2=O)sc2c1CCCCC2	9.2%
COc1ccc(OC)c(N2CC(c3nc4ccccc4n3Cc3cccc(C)c3)CC2=O)c1 (stereo not drawn)	78.3%
O=C(CSc1ccc2nnc(CCNC(=O)c3ccccc3)n2n1)Nc1nccs1	-4.7%
CN(Cc1ccccc1)c1nc2c(c(=O)n(C)c(=O)n2C)n1CCSc1nnnn1-c1ccccc1	4.7%
O=C(Cn1cnc2c(cnn2-c2ccccc2)c1=O)N1CCOCC1	-4.1%
NC(=O)c1nc(-c2ccc(Cl)cc2)nc2c1[nH]c(=O)n2-c1ccccc1F	1.6%
O=C(COc1ccc2oc(-c3ccccc3)cc(=O)c2c1)Nc1ccccc1	-15.0%
COc1ccc(OC)c2[nH]c(=O)c(CCNC(=O)COc3ccc4ccccc4c3)cc12	6.1%
CCCCn1c(SCC)nc2c1c(=O)[nH]c(=O)n2C	12.8%
CS(=O)(=O)c1ccc2nc(NC(=O)Cc3ccccc3)sc2c1	26.0%
CCOC(=O)c1nn(-c2ccc(Cl)cc2)c(=O)c2c(NC(=O)C(C)Oc3ccccc3)scc12 (stereo not drawn)	20.3%
O=S(=O)(/N=C/c1c[nH]c2ccccc12)c1ccccc1	-0.3%
CS(=O)(=O)c1cccc(S(=O)(=O)N2CCc3ccccc32)c1	14.5%
CCCCCn1c(Sc2nc3ccccc3s2)nc2c1c(=O)[nH]c(=O)n2C	14.0%
COc1ccc(OC)c(NC(=O)c2oc3ccccc3c2NC(=O)/C=C/c2ccc3c(c2)OCO3)c1	-4.1%
NC(=O)N/N=C/c1ccccc1[N+](=O)[O-]	-0.2%
Cc1ccc(-c2csc(Nc3ccc(O)c(C(=O)O)c3)n2)cc1	-6.0%
CCOc1ccc(NC(=O)c2oc3ccccc3c2NC(=O)c2cc(Br)ccc2Cl)cc1	4.9%
CC1(C)COc2ccc(NC(=O)COc3ccc(Cl)cc3)cc2NC1=O	-7.8%
COC(=O)c1ccc(/C=C(\C#N)c2nc(-c3ccc([N+](=O)[O-])cc3)cs2)cc1	-0.8%
COc1ccc(C(=O)CSc2nc3[nH]ncc3c(=O)[nH]2)cc1	0.1%
O=C(N=Nc1c(O)[nH]c2ccc(Br)cc12)c1ccc(Br)cc1	1.9%
O=C(Oc1coc(CSc2ncccn2)cc1=O)c1ccc(F)cc1	9.8%
Cn1c(Cn2c(=O)sc3ccccc32)nnc1SCC(=O)Nc1cccc(F)c1	-4.5%
COc1ccc(C(=O)NNc2nc3c(C)c(C)ccc3s2)cc1	6.3%
O=C(O)c1ccc(N2C(=O)/C(=C\c3cccnc3)SC2=S)cc1	7.3%
Cn1c(Cn2c(=O)sc3ccccc32)nnc1SCC(=O)Nc1cccc(Cl)c1	-1.6%
COc1ccccc1NC(=O)CSc1nc(N)c(NC(=O)c2ccc(C)cc2)c(=O)[nH]1	1.8%
CCC(=O)Nc1c(C(=O)Nc2ccc3c(c2)OCO3)oc2ccccc12	-10.5%

Reprinted at random: four compounds from above, in no set order.
SMILES	Mtb H37Rv
Cc1ccc2nc(NC(=O)c3ccc(-c4nc5ccccc5s4)s3)sc2c1	0.8%
Cc1cn2c3c(=O)n(C/C=C/c4ccccc4)c(=O)n(C)c3nc2n1-c1ccccc1F	8.4%
CCOC(=O)c1oc2ccccc2c1NC(=O)c1ccc(OC)cc1OC	9.1%
Cc1c(C(=O)O)sc2nc(SC3CCOC3=O)[nH]c(=O)c12 (stereo not drawn)	-10.4%

The list continues:
SMILES	Mtb H37Rv
Nc1nc(SCC(=O)Nc2ccc(Cl)c(Cl)c2)[nH]c(=O)c1NC(=O)c1ccc(F)cc1	-7.2%
CCOC(=O)COc1cccc2c(=O)n(CC(=O)Nc3ccc(OCC)cc3)ccc12	-7.2%
O=C(Nc1nc(-c2ccc(I)cc2)cs1)c1ccc2c(c1)OCCO2	-2.9%
C=CCn1c(N2CCN(Cc3ccccc3Cl)CC2)nc2c1c(=O)[nH]c(=O)n2C	-2.6%
COc1ccc(C)c2sc(NNC(=O)COc3ccccc3)nc12	4.0%
CCCCOc1ccc(/C=C(\C#N)c2nc3ccccc3[nH]2)cc1OC	11.7%
COc1ccc(OC)c2[nH]c(=O)c(CCNC(=O)c3ccc4c(c3)OCO4)cc12	51.2%
COc1ccccc1NC(=O)CSc1nncc(=O)n1N	18.2%
O=C(NCc1cccnc1)c1ccc(OC(F)F)cc1	10.3%
CCc1cccc(OCC(=O)Nc2ccc(S(=O)(=O)Nc3cc(C)on3)cc2)c1	-2.0%
CCc1ccc2oc3c(c(=O)c2c1)C(c1ccc([N+](=O)[O-])cc1)N(c1cc(C)on1)C3=O (stereo not drawn)	-17.0%
O=C(Nc1nc2c(cc3c4c(cccc42)CC3)s1)c1ccc(Cl)cc1Cl	-2.0%
Cc1ccnc(SCCn2c(N3CCC(C)CC3)nc3c2c(=O)n(C)c(=O)n3C)n1	8.2%
CCC(Sc1nncn1C)C(=O)Nc1nnc(-c2ccc(Cl)cc2)s1 (stereo not drawn)	0.3%
CCc1ccc(NC(=O)CSc2nnc(C)c(=O)n2N)cc1	51.7%
